NPYLR7 ag: activates Aedes aegypti NPYLR7 receptor | HEK293T NPYLR7/Galpha15, GCaMP6s calcium fluorescence | activation, % at 10 µM | 270,000 tested, 0.15% active | AID 1259423; in the data active means activation above about 40%;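 further: 0% = vehicle and 100% = reference agonist at the receptor; some compounds past the cut are filed as inactive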
NPYLR7 ag max-min: further read-out of NPYLR7 ag, marked with its call; activation, %; measured here: Max-Min RFU normalised activation; some inactives read as strong as hits;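 span of the calcium signal over five minutes; 0% = vehicle and 100% = native peptide agonist; compound fluorescence can raise it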
Numbers without * were called inactive; & = joins results of further samples. This is a subset, so the mix of outcomes need not match the whole.

Values in the order – NPYLR7 ag, NPYLR7 ag max-min
- COc1ccc(OC)c(N2CCN(Cc3c(F)cccc3F)C(C)C2=O)c1 (stereo not drawn)
    0.4, 7.3
- CCNCc1cccc(-n2cnc3ccccc32)n1
    -0.9, -2.3
- C=CCN(CC(=O)N1CCc2sccc2C1COc1ccccc1OC)C(=O)C1CCCC1 (stereo not drawn)
    -4.6, 4.4
- CCCC(CCC)SCCS(N)(=O)=O
    0.2, -2.5
- COc1cc2c(cc1OC)C(C(C)NC(=O)c1ccccc1Cl)N(Cc1ccc(F)cc1)CC2 (stereo not drawn)
    -8.2, 0.3
- CCN1CCN(c2nc(N3CCCC(C)C3)nc(N)c2[N+](=O)[O-])CC1 (stereo not drawn)
    5.8, 6.5
- COCCC(=O)N(Cc1ccco1)C(C)C(C)C (stereo not drawn)
    8.5, -0.4
- O=C1c2ccc(Br)cc2C(=O)N1CNc1ccc(F)cc1
    -2.3, -6.0
- Cc1ccc2cc(CCNC(=O)c3cccc4ccccc34)c(=O)[nH]c2c1
    -0.8, 15.4
- Cc1nn(C(C)c2nn3c(C4CC4)nnc3s2)cc1Br (stereo not drawn)
    0.2, -4.6
- COc1ccccc1C1C(C(=O)OC(C)C)=C(C)NC2=C1C(=O)CCC2 (stereo not drawn)
    3.7, -11.3
- CCCCCn1c(=O)c2c(nc3n2CC(C)CN3Cc2ccccc2)n(C)c1=O (stereo not drawn)
    4.2, 4.6
- Cc1ccc(S(=O)(=O)NC(=O)C2(C)CCN2C(=O)c2cc(C)n(C)n2)nc1 (stereo not drawn)
    0.2, -1.6
- O=C(N1CCOCC1)C12CCC3CC(CC(C3)C1)C2
    12.0, 4.4
- CCOc1ccc(C(=O)NCc2csc(C)n2)o1
    -2.7, -7.6
- CC(C)OCc1ccc(C(=O)Nc2cccc(-c3nn[nH]n3)c2)cc1
    0.2, -0.3
- O=C(OCc1cc(-c2ccc(F)cc2F)on1)C1CCCC1
    -1.3, -3.9
- CCOc1ccccc1-n1nnc(C(=O)Nc2nccs2)c1C
    -2.3, -7.4
- Cc1onc(-c2c(F)cccc2Cl)c1C(=O)N1CCC(n2nc(-c3ccccc3)cc2-c2ccccc2)CC1
    4.9, 3.0
- CC(C)(C)CN(CCO)Cc1ncc(C(C)(C)C)o1
    5.6, 3.0

An excerpt from above in order of heavy-atom count, largest number first.
Values in the order – NPYLR7 ag, NPYLR7 ag max-min
- COc1cc2c(cc1OC)C(C(C)NC(=O)c1ccccc1Cl)N(Cc1ccc(F)cc1)CC2 (stereo not drawn)
    -8.2, 0.3
- O=C(N1CCOCC1)C12CCC3CC(CC(C3)C1)C2
    12.0, 4.4
- CCOc1ccc(C(=O)NCc2csc(C)n2)o1
    -2.7, -7.6

(cont.)
Values in the order – NPYLR7 ag, NPYLR7 ag max-min
- CCN1CC(Cn2ccnc2-c2cc3c(cc2OC)CCC3)CC1=O (stereo not drawn)
    18.6, 4.8
- CCOC(=O)C1(CCc2ccccc2)CCN(C(=O)Cc2csc(C(C)=O)c2)CC1
    -11.4, -12.4
- Cc1ccc(OCCn2c(C3CC(=O)N(C(C)(C)C)C3)nc3ccccc32)cc1 (stereo not drawn)
    3.9, 6.4
- CC(C)(CCl)C(=O)NCc1nnc(SCc2ccc(F)cc2)n1-c1cc(Cl)ccc1Cl
    0.5, 2.5
- COCc1cc(CNC(=O)c2cnc3ccccc3c2)[nH]n1
    2.1, 0.6
- CN(CCc1ccccn1)C(=O)Cc1cccc(NC2OC(C3COC(C)(C)O3)[C@@H]3OC(C)(C)O[C@H]23)c1 (stereo partly drawn)
    -9.0, -13.4
- COc1ccc(OC)c(C2NC(=O)NC(C)=C2C(=O)Nc2ccccc2OC)c1 (stereo not drawn)
    -6.9, -11.4
- CCN1CCN(C(=O)c2ccc(CSc3nnc(-c4cccc(OC)c4)n3-c3cccc(Cl)c3)cc2)CC1
    -8.0, 4.7
- C=C(C)COc1ccc(-c2nc(N)ncc2Oc2cccc(OC)c2)c(O)c1
    1.9, -1.6
- O=C(Cc1ccc(N2CC(C(=O)O)CC2=O)cc1)NC1CC1 (stereo not drawn)
    9.3, 5.6
- COC(=O)C(C)Oc1ccc2c(c1)O/C(=C\c1cc(Br)cc3c1OCOC3)C2=O (stereo not drawn)
    -2.4, -3.2
- Cc1ccc(C(=O)NC2CCCc3nc(-c4ccccc4)sc32)cn1 (stereo not drawn)
    -0.9, -0.9
- CCN(Cc1noc(C2CCC2)n1)C(=O)c1scc2c1OCCO2
    -0.6, -1.7
- COC(=O)C1=C(C(=O)OC)SC(=C2C(=NCc3ccc(F)cc3)C(C)(C)Nc3ccccc32)S1
    -3.4, -4.8
- Cc1cccc(C(C(=O)N(CCO)Cc2nccs2)N(C)C)c1 (stereo not drawn)
    0.4, -3.7
- Cc1ccccc1SCC(=O)NCc1ccc(S(=O)(=O)N2CCCCC2)cc1
    1.6, 0.9
- Cn1c(=O)c2c(nc3oc(-c4ccc(F)cc4)cn32)n(C)c1=O
    1.0, 5.9
- O=c1cc(CSc2ccc(S(=O)(=O)N3CCCC3)cn2)nc2sccn12
    6.5, 4.0
- C=CCOC(=O)C1C(C)=Nc2nc(SCCC)[nH]c(=O)c2C1c1sccc1C (stereo not drawn)
    -1.7, -3.2
- Fc1ccc(CSC2=NCCN2)c(Br)c1
    8.6&-2.8, 6.6&-1.3
- CCc1noc(CN(CC)Cc2ccc3cccc(O)c3n2)n1
    3.2, 6.5
- CC(N)(C#N)Cn1cc(Br)cn1 (stereo not drawn)
    10.5, 5.0
- CCOc1ccc2ccccc2c1C1Nc2ccccc2-c2nnc(SCC)nc2O1 (stereo not drawn)
    3.4, -2.2
- COCc1nnc(C(=O)N2CCC(C(=O)OC)(c3ccccc3)C2)o1 (stereo not drawn)
    7.8, 6.4
- CCNC(=O)C1(C)CCN1C(=O)C1(c2ccccc2)CC1 (stereo not drawn)
    14.1, 20.1
- CNC(=O)Cn1nc(-c2ccc(OC)cc2)c2sc(C)nc2c1=O
    1.8, -0.8
- CC(=O)N1N=C2CC(C)(C)OCC2C1c1ccccc1 (stereo not drawn)
    0.4, 0.9
- COc1ccc(-c2cnc3ncnn3c2N2CCN(C(=O)c3ccc(Cl)cc3)CC2)cc1OC
    4.1, -1.3
- CC(C)SC(NC(=O)OCc1ccccc1)C(=O)NCCCN1CCOCC1 (stereo not drawn)
    -12.3, -19.1
- COc1cc(OC)cc(C(=O)N2CCCN(C(=O)CCN3CCc4sccc4C3c3ccccc3)CC2)c1 (stereo not drawn)
    8.2, 0.3
- CC(=O)c1cc(Br)ccc1OCc1nc(N)nc(Nc2ccccc2C)n1
    0.0, 13.6
- CCc1ncc(C(=O)NCCNc2ncccc2C(F)(F)F)s1
    0.9, 0.8
- CC(CCNS(=O)(=O)c1ccc(S(N)(=O)=O)cc1)c1ccccc1 (stereo not drawn)
    14.3, 11.0
- C=CCN(CC(=O)N1CCc2sccc2C1c1ccc(F)cc1)C(=O)CCC(=O)OCC (stereo not drawn)
    -4.1, -12.0
- CC(C)n1c2c(=O)n(C)c(=O)n(C)c2n2c(-c3ccc(Cl)cc3)nnc12
    1.3, -0.7
- CCc1nnc(NC(=O)C(C)Oc2cccc(C)c2)s1 (stereo not drawn)
    -4.7, -2.8
- CC1(C)C2OCCCC2C1OC(=O)C1CCN(CC(F)(F)F)CC1 (stereo not drawn)
    6.5, 2.9
- Clc1ccc(OCc2nc3ccccc3n2CC2CC2(Cl)Cl)cc1 (stereo not drawn)
    -0.7, 0.3
- Cc1nc2c(N3CCC(c4cc(-c5ccco5)n[nH]4)CC3)ncnc2o1
    9.8, -3.2
- CCc1ccc(S(=O)(=O)N2CCN(c3ncnc4c3nnn4CC)CC2)s1
    0.5, 23.7
- Cc1ccc(-n2nc(C(=O)NCCN3CCOCC3)c(=O)n(Cc3cccc(C)c3)c2=O)cc1
    15.7, 10.6
- CC(C)(O)C#Cc1ccc(-c2nc(C3CC3)nn2-c2ccccc2)o1
    21.2, 7.3
- Cc1ccc(F)cc1C(=O)Nc1nc(C)c(C)s1
    -1.3, -1.7
- O=C(O)c1nn(C2CCOC2=O)c(=O)c2ccccc12 (stereo not drawn)
    -0.1, -0.4
- CC(C)c1ccc(CC(=O)N2CCC2(C)C(=O)Nc2cc(C(C)(C)C)nn2C)cc1 (stereo not drawn)
    3.0, -0.5
- CCOc1ccccc1N1C(=O)CSC1c1ccc(NC(=O)c2ccccc2Br)cc1 (stereo not drawn)
    8.9, 15.9
- CC(CC(=O)Oc1ccccc1-c1nc2ccc(Br)cn2c1NC1CCCCC1)CC(C)(C)C (stereo not drawn)
    -0.2, 8.5
- CN(C)CCCn1c2c(c(SCC(=O)Nc3ccccc3)nc1=O)CCC2
    -1.3, -4.0
- CCOc1ccc(N=C(C)CC)c(C2COC(=O)C2=N)c1 (stereo not drawn)
    11.6, 7.6
- C#CC(C)(C)OC(=O)c1ccccc1C(=O)O
    -7.1, -6.2

Additional records:
Values in the order – NPYLR7 ag, NPYLR7 ag max-min
- CCCNC(=O)N1CCN(c2ccccc2CC)C(=O)C1C (stereo not drawn)
    23.2, 27.3
- CN(C)c1ccc(/C=[N+](\[O-])C2(C)CCCCC2=O)cc1 (stereo not drawn)
    4.0, 3.6
- Cc1cc(C(C#N)c2ccc(Cl)cc2)c(Cl)cc1NC(=O)c1cc(I)cc(I)c1O (stereo not drawn)
    -2.1&4.8, -2.6&-3.1
- O=C(Nc1ccc(Cl)cc1F)C1CC12CCOCC2 (stereo not drawn)
    5.3, 3.5
- CC(C)CC(O)C1CCN(C(=O)Cc2cccnc2)CC1 (stereo not drawn)
    2.4, 22.5
- Cc1cccn2c(=O)c(C(=O)NCCCN3CC(C)CC(C)C3)c(O)nc12 (stereo not drawn)
    0.7, -0.2
- CCN(CC(=O)NCc1ccc(Cl)cc1)Cn1nnc2ccccc21
    5.9, 3.1
- CCCN1C(=O)C(c2c(C(C)C)[nH]n(-c3cccc(Cl)c3)c2=O)=C([n+]2ccccc2)C1=O
    4.7, 1.3
- O=C(c1ccc(-c2ccoc2)nc1)N1CCC(CCn2cccn2)CC1
    5.6, 4.2
- CC(C)c1nc2cc(NS(=O)(=O)c3ccc4c(c3)CC(=O)N4)ccc2o1
    -1.0, -1.9
- CC1CCN(c2ccc(/C=C3\SC(N)=NC3=O)cc2[N+](=O)[O-])CC1
    -10.5, -18.0
- Cc1cc(NCCOCCO)n2nc(C(F)(F)F)c(-c3ccccc3)c2n1
    4.5, 3.2
- CC1(C(=O)NS(C)(=O)=O)CCN1C(=O)c1ccccc1CCc1ccccc1 (stereo not drawn)
    3.7, 0.0
- Cc1ccc(-n2ncc3c(=O)n(NC(=O)c4cccc([N+](=O)[O-])c4C)cnc32)cc1C
    -0.4, -2.9
- CN1CCN(CCCn2cnc3c2c(=O)n(C)c(=O)n3C)CC1
    4.4, 3.1
- CCCNC(=O)Cn1nc2c(c1NC(=O)Cc1ccc(-c3ccccc3)cc1)CSC2
    -3.9, 3.6
- CC(C)c1ccc(-n2ncc(C(=O)N(C)CCc3ccccc3)c2N)cc1
    2.1, 21.2
- Cc1ccccc1C1=NOC(CN(Cc2cccc(Cl)c2)CC(O)Cc2ccccc2)C1 (stereo not drawn)
    -1.9, 1.9
- Cc1nnc(SCC(=O)NCCN2C(=O)CSC2=O)s1
    5.5, 7.1
- O=S(=O)(c1ccc(F)c(F)c1)N1CC[N+]2(CCCC2)CC1
    -1.4, -1.4

Molecules above that contain a CF3 group:
Values in the order – NPYLR7 ag, NPYLR7 ag max-min
- CCc1ncc(C(=O)NCCNc2ncccc2C(F)(F)F)s1
    0.9, 0.8
- CC1(C)C2OCCCC2C1OC(=O)C1CCN(CC(F)(F)F)CC1 (stereo not drawn)
    6.5, 2.9
- Cc1cc(NCCOCCO)n2nc(C(F)(F)F)c(-c3ccccc3)c2n1
    4.5, 3.2

The results go on.
Values in the order – NPYLR7 ag, NPYLR7 ag max-min
- CCNc1cc(C)nc(N2CCN(C(=O)Nc3cc(C)ccc3C)CC2)n1
    7.0, -0.3
- Cc1nc(C(C)NC(=O)C2CCCN2Cc2ccc(F)cc2)cs1 (stereo not drawn)
    -19.9, -22.4
- CCn1ccnc1CN1CCC(n2nccc2NC(=O)CCc2ccccc2)CC1
    3.9&2.5, 2.2&0.5
- Cc1ccc(-n2nc(-c3ccccc3Cl)cc2C(=O)N2CCN(C(c3ccccc3)c3ccccc3)CC2)c(C)c1
    21.2, 29.6
- Cc1cccc(Nc2ccc(NCCNC(=O)Nc3ccccc3F)nn2)n1
    11.8, 1.9
- C/C(CCc1oc2ccc(Cl)cc2c1-c1ccc(C)o1)=N/O
    -15.7, -20.5
- COC(=O)C1=C(C)N(C)C(C)=C(C(=O)OC)C1c1ccc(F)cc1
    -3.9, -3.9
- O=C(/C=C/c1sc2ccccc2c1Cl)N1CCN(CCN2CCCC2)CC1
    9.4, 7.0
- Cc1ccc(C(c2ccccc2)N2CCN(C(=O)c3ccc(Cl)cc3)CC2)cc1 (stereo not drawn)
    -2.7, 5.4
- O=C(NC1(C(F)(F)F)C(=O)OC2CCCC21)NS(=O)(=O)c1ccccc1Cl (stereo not drawn)
    -1.3, -6.0
- C=CCSc1nnc(NC(=O)c2ccccc2F)s1
    8.8, 18.4
- COc1cccc(C(C)N(C)Cc2cn(C)nc2-c2cccc(Cl)c2)c1 (stereo not drawn)
    8.2&-3.8, -0.8&-5.2
- Cc1cc(C(=O)N2CCC(c3nn(C)c(=O)n3-c3ccccc3)CC2)no1
    18.9, 6.6
- CCc1nnsc1C(=O)O
    -4.3, -4.8
- FC(F)(F)c1ccc(NC2CCCCC2)nc1
    -0.5, -2.2
- CCN(Cc1ccc(Br)s1)C(=O)Cn1nnc(-c2ccccc2)n1
    -0.9, -0.4
- CC(c1cc2ccccc2[nH]1)N(C)C(=O)c1ccc(-n2cnnc2)cc1 (stereo not drawn)
    5.3, 4.2
- N#CCCN(Cn1nc(-c2cccs2)oc1=O)C1CCOCC1
    -1.2, 2.8
